A1 inh = inhibitors of the anti-apoptotic protein A1, read as caspase activation; 0.066% of 330,000 active; caspase activation, % (test concentration not listed); MEF A1-2A-BIM cells, Caspase-Glo 3/7 luminescence, 3 h; percent of clofoctol response, vehicle zero;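 active = over half of replicate activation scores above 10%, or exactly half above 10 with the replicate mean above 10; inconclusive = replicate mean below 10 yet half the replicates above 10; inactive = over half of replicates below 10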;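 note: wells of about 30 µL received 50 nL stock; many hits fall short of the cut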
RanGTP-Imp inh = inhibitors of RanGTP-importin-beta interaction, primary screen, biochemical, FRET, CFP-Ran, YFP-importin-beta, homogeneous; 1.1% of 300,000 active; AID 2216; inhibition, % (test concentration not listed); cell-free CFP-Ran/YFP-importin-beta FRET ratio;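 active = most replicates above 15%; inconclusive = exactly half above 15%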;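 note: 0% = DMSO wells and 100% = Ran loaded with GDP instead of GTP; wells of about 40 µL received 100 nL stock; the first replicate is given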
B2AR ag = human beta-2 adrenergic receptor agonism by FAP; P07550; Am2.2-beta2AR cells, FAP receptor internalization, flow cytometry; reference of the scale not given here; response, % (test concentration not listed); 0.43% of 340,000 active; AID 504454;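 active = response above a set limit, near 3 SD of response in nonfluorescent compounds, cut at about 42% in these data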;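 note: stock transfer was 100 nL into about 11 µL; a reference agonist was the positive control; negative values mostly stem from fluorescent compounds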
T cruzi repl = T. cruzi replication inhibition. T. cruzi beta-gal in NIH3T3, luminescence, 90 h. AID 1885. 1.4% of 300,000 active. inhibition, % (no concentration beside the values);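 active = mean inhibition across valid replicates above about 55%, limit read from the data; inconclusive = mean below that limit but half or more replicates reach it; inactive = mean below it, under half of replicates reach it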;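 note: signal also drops with host cell toxicity which is not excluded here; 0% = plate median of DMSO wells and 100% = zero luminescence signal; higher percent means less beta-gal luminescence so fewer parasites; stock transfer was 50 nL into about 50 µL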
Beta apoptosis = blocks beta cell apoptosis; INS-1E cytokine-induced death, ATP luminescence, 48 h; percent of positive-control rescue, neutral wells zero; 0.8% of 300,000 active; protection from apoptosis, % (test concentration not listed);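 active = all replicates at 75% or more, or half of them and the mean; inconclusive = half reach 75% but not the mean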;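 note: 0% = cytokine-treated negative control wells and 100% = positive control rescue; higher means more ATP so stronger rescue from cytokine killing; wells of about 40 µL received 100 nL stock; the first replicate is given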
LANA-H2B inh = blocks KSHV LANA binding to histone H2A/H2B; Q9QR71; cell-free LANA-H2A/H2B peptide, fluorescence polarization; inhibition, % (concentration not given with the values); 0.6% of 320,000 active; in the data active = inhibition mostly above about 10%, no sharp cut-off; inactive = mostly below about 6.7%;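 note: stock transfer was 7.5 nL into about 10 µL; 0% = median of vehicle wells and 100% = median of positive control wells; one replicate is shown; the record names a cut of 25% in any replicate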
Target sequence (Q9QR71 whole entry, looked up): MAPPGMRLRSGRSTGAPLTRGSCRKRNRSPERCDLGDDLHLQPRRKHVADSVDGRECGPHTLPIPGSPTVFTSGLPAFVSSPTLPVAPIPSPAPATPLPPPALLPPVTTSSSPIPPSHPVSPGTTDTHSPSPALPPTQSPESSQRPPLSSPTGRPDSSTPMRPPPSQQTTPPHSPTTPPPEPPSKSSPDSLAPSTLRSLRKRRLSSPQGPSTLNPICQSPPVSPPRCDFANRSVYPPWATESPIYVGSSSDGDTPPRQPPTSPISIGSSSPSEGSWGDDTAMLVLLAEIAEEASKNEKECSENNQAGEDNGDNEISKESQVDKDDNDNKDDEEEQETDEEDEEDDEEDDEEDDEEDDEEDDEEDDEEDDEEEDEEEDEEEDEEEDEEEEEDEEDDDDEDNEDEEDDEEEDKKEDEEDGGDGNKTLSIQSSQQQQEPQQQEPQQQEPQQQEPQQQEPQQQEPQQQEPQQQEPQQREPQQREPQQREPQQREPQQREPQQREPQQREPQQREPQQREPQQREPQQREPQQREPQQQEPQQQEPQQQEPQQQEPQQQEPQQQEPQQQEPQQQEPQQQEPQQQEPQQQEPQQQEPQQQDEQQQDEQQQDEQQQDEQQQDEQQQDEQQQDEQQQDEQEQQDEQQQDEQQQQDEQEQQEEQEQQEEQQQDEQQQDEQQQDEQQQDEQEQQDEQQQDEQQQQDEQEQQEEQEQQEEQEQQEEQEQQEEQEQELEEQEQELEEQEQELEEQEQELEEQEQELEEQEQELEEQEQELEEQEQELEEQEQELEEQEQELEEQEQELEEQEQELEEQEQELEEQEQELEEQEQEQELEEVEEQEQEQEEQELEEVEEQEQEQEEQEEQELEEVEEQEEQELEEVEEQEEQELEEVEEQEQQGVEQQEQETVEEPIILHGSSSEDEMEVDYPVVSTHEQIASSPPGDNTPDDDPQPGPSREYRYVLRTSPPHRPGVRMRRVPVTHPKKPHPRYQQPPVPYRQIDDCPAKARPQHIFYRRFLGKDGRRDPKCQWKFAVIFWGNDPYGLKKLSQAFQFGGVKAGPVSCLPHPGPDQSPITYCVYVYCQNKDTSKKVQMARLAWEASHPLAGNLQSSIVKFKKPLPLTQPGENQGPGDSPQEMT
UCH37 inh = inhibitors of human deubiquitinating enzyme UCH37; Q9Y5K5; purified proteasome/UCH37, Ub-AMC cleavage fluorescence; inhibition, % (concentration not given with the values); 0.33% of 330,000 active; AID 588478;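 active = mean of two replicates above 20%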;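 note: 0% = compound-free wells with enzyme and 100% = wells lacking proteasome; stock transfer was 100 nL into about 20 µL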
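Material: human UCH37 enzyme supplied as purified proteasome complex / Amount: 0.15 nM proteasome as dispensed / Buffer or medium: pH 7.4 Tris-HCl (50 mM) with ovalbumin, ATP-MgCl2, DTT / Times: preincubation 30 min, reaction 25 min, room temperature / Technique: AMC fluorescence from Ub-AMC cleavage, excitation 355 nm, emission 460 nm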
Calb FLC = C. albicans growth modulation with fluconazole. 0.57% of 300,000 active. growth inhibition, % (no concentration beside the values). C. albicans CaCi-2 (fluconazole-resistant clinical isolate) + fluconazole, Alamar Blue growth, 48 h;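 active = most replicates above 75%; inconclusive = exactly half above 75%; inactive = most below 75%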;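 note: all wells also contain fluconazole at 8 µg/ml as a sub-toxic cotreatment; 0% = median of DMSO wells and 100% = median of geldanamycin control wells; wells of about 8 µL received 7.5 nL stock; the first replicate is given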
* marks the source's active call; other numbers are inactive results; & = joins results of further samples.

How did CCC(C)(C)NC(=O)CN(Cc1ccc(F)cc1)C(=O)CCC(=O)Nc1ccccn1 do in these assays?
A1 inh: -0.7; RanGTP-Imp inh: -1.0; B2AR ag: 4; T cruzi repl: 14; Beta apoptosis: -1; LANA-H2B inh: -5.4; UCH37 inh: 1.0; Calb FLC: -6

How did Cc1nn(CC(=O)N(C)Cc2ccccc2)c(=O)c2cccn12 do in these assays?
A1 inh: 0.8; RanGTP-Imp inh: -0.6; B2AR ag: -4; T cruzi repl: 10; Beta apoptosis: -5; LANA-H2B inh: 2.5; UCH37 inh: -1.2; Calb FLC: -4

What do the screens show for `C=CCNC(=O)C1CCN(C(=O)c2ccc(-c3ccccc3)cc2)CC1`?
A1 inh: 1.2; RanGTP-Imp inh: 1.6; B2AR ag: -5; T cruzi repl: -13; Beta apoptosis: -2; LANA-H2B inh: -4.9; UCH37 inh: -0.8; Calb FLC: -19

Results for CC1CC(C)CN(C(=O)/C(=C\c2ccccc2)c2ccccc2)C1 (stereo not given) ?
A1 inh: -0.1; RanGTP-Imp inh: inconclusive; B2AR ag: 15; T cruzi repl: 0; Beta apoptosis: 51; LANA-H2B inh: 1.2; UCH37 inh: 1.0; Calb FLC: -5

What do the screens show for `COc1cccc(NC(=O)CN(C)CC(=O)c2c(C)[nH]c3ccccc23)c1`?
A1 inh: -1.1; B2AR ag: 7; Beta apoptosis: 1; LANA-H2B inh: -1.1; UCH37 inh: 1.1

How did CCNC(=O)NC(=O)C(C)Oc1ccc(C(=O)OC)cc1 (stereo not given) do in these assays?
A1 inh: 1.7; RanGTP-Imp inh: -4.0; B2AR ag: 0; T cruzi repl: -5; Beta apoptosis: -1; LANA-H2B inh: 0.9; UCH37 inh: -6.9; Calb FLC: 5

How did Cc1noc(C(C)C)c1C(=O)Nc1ccc(-c2nnc3n2CCCCC3)cc1 do in these assays?
A1 inh: 0.2; B2AR ag: 1; Beta apoptosis: 0; LANA-H2B inh: -2.8; UCH37 inh: 3.2

How did COc1ccc(NS(=O)(=O)c2cccc(C(=O)NNC(=O)CNC(=O)c3cccc(C)c3)c2)cc1 do in these assays?
A1 inh: 0.0; RanGTP-Imp inh: -4.9; B2AR ag: 1; T cruzi repl: -3; Beta apoptosis: -10; LANA-H2B inh: 4.1; UCH37 inh: 2.7; Calb FLC: -4

How did OCCN1CCN(c2ncnc3sc4c(c23)CCCC4)CC1 do in these assays?
A1 inh: 0.1; RanGTP-Imp inh: -0.1; B2AR ag: 4; T cruzi repl: -8; Beta apoptosis: 3; LANA-H2B inh: 0.5; UCH37 inh: 6.0; Calb FLC: -8

Results for CCCN1CCN(S(=O)(=O)c2cc3c(cc2C)NC(=O)CO3)CC1 ?
A1 inh: 0.2; RanGTP-Imp inh: 9.1; B2AR ag: -3; T cruzi repl: 8; Beta apoptosis: -5; LANA-H2B inh: -1.7; UCH37 inh: 4.7; Calb FLC: -2

How did O=C(Nc1cccc(C(F)(F)F)c1)C1CCCCC1 do in these assays?
A1 inh: 1.2; RanGTP-Imp inh: 3.9; B2AR ag: -11; T cruzi repl: -10; Beta apoptosis: -4; LANA-H2B inh: 1.9; UCH37 inh: 1.8; Calb FLC: -9

What do the screens show for `Cc1cc(NC(=O)Nc2cccc(C(F)(F)F)c2)no1`?
A1 inh: 0.1; RanGTP-Imp inh: -1.4; B2AR ag: -6; T cruzi repl: 9; Beta apoptosis: 4; LANA-H2B inh: 1.8; UCH37 inh: 1.7; Calb FLC: -1

How did O=c1[nH]c(CO)nc2c1oc1ccccc12 do in these assays?
A1 inh: 0.7; RanGTP-Imp inh: 4.3; B2AR ag: 10; T cruzi repl: -1; Beta apoptosis: -4; LANA-H2B inh: 4.2; UCH37 inh: 2.3; Calb FLC: 3

Results for CC1=C(C(=O)OC2CCCC2)C(c2ccc(C)o2)C2=C(CC(c3cccs3)CC2=O)N1 (stereo not given) ?
A1 inh: -0.3; RanGTP-Imp inh: 0.0; B2AR ag: 11; T cruzi repl: 47; Beta apoptosis: 3; LANA-H2B inh: -4.1; UCH37 inh: -8.4; Calb FLC: 5

How did O=[N+]([O-])c1cccc(S(=O)(=O)Nc2cccc(-c3ccc(N4CCCC4)nn3)c2)c1 do in these assays?
RanGTP-Imp inh: -3.4; B2AR ag: 4; T cruzi repl: 40; UCH37 inh: 4.6; Calb FLC: 22

Molecules listed so far containing a CF3 group, in the order listed:
How did O=C(Nc1cccc(C(F)(F)F)c1)C1CCCCC1 do in these assays?
A1 inh: 1.2; RanGTP-Imp inh: 3.9; B2AR ag: -11; T cruzi repl: -10; Beta apoptosis: -4; LANA-H2B inh: 1.9; UCH37 inh: 1.8; Calb FLC: -9

What do the screens show for `Cc1cc(NC(=O)Nc2cccc(C(F)(F)F)c2)no1`?
A1 inh: 0.1; RanGTP-Imp inh: -1.4; B2AR ag: -6; T cruzi repl: 9; Beta apoptosis: 4; LANA-H2B inh: 1.8; UCH37 inh: 1.7; Calb FLC: -1

New compounds follow.
Results for COC(=O)C1=C(C)NC(C)=C(C(=O)OC)C1C(=O)OCCN1C(=O)c2ccccc2C1=O ?
A1 inh: 0.8; RanGTP-Imp inh: -0.3; B2AR ag: 0&-9; T cruzi repl: -4; Beta apoptosis: -2; LANA-H2B inh: 1.3; UCH37 inh: 3.2&2.0; Calb FLC: -22

Results for Cn1nnnc1SCC(=O)Nc1ccccc1[N+](=O)[O-] ?
A1 inh: -0.3; RanGTP-Imp inh: 2.8; B2AR ag: -2; Beta apoptosis: -2; LANA-H2B inh: 1.9; UCH37 inh: 5.7; Calb FLC: 17

Results for CC(C)Cn1c(-c2ccco2)nc2c(c(=O)c3ccccc3n2C)c1=O ?
A1 inh: 0.7; RanGTP-Imp inh: -4.7; T cruzi repl: 22; Beta apoptosis: 1; LANA-H2B inh: -3.5; UCH37 inh: -2.5; Calb FLC: -6

What do the screens show for `Cn1c(=NC(=O)COc2ccccc2)sc2ccccc21`?
A1 inh: -0.5; RanGTP-Imp inh: -3.7; B2AR ag: -19; T cruzi repl: 9; Beta apoptosis: 1; LANA-H2B inh: 1.7; UCH37 inh: 2.8; Calb FLC: 15

What do the screens show for `COC(=O)c1ccc(OC(=O)CN2C(=O)c3ccccc3C2=O)cc1`?
A1 inh: -0.9; RanGTP-Imp inh: -2.4; B2AR ag: -5; T cruzi repl: 5; Beta apoptosis: -1; LANA-H2B inh: -2.1; UCH37 inh: 1.0; Calb FLC: 1

Results for C/C=C/c1ccc(OCCCn2cncn2)c(OC)c1 ?
A1 inh: -0.8; RanGTP-Imp inh: 4.6; B2AR ag: 3; T cruzi repl: 3; Beta apoptosis: -3; LANA-H2B inh: -1.1; UCH37 inh: 0.0; Calb FLC: 0

How did COC(=O)c1ccc(NC(=S)NC(=O)C2CCC2)cc1 do in these assays?
A1 inh: -0.2; RanGTP-Imp inh: 1.8; B2AR ag: -8; T cruzi repl: -6; Beta apoptosis: -1; LANA-H2B inh: -3.0; UCH37 inh: -0.2; Calb FLC: -19

What do the screens show for `Cn1c(CS(=O)Cc2c(Cl)cccc2Cl)nnc1SCc1c(Cl)cccc1Cl` (stereo not given)?
A1 inh: 0.1; RanGTP-Imp inh: 2.8; B2AR ag: -9; T cruzi repl: 11; Beta apoptosis: 14; LANA-H2B inh: -1.1; UCH37 inh: 4.3; Calb FLC: 1

How did COc1ccccc1CNC(=O)CN1C(=O)NC2(CCCC2)C1=O do in these assays?
A1 inh: -0.1; B2AR ag: 7; Beta apoptosis: 0; LANA-H2B inh: 1.6; UCH37 inh: 4.0

How did O=C(C=C1SCCS1)/C=C/c1ccco1 do in these assays?
A1 inh: 0.8; RanGTP-Imp inh: 2.6; B2AR ag: -6; T cruzi repl: -7; Beta apoptosis: -8; LANA-H2B inh: 4.0; Calb FLC: -4

Results for CS(=O)(=O)NN1C(=O)c2ccccc2NC1c1cccc2cccnc12 (stereo not given) ?
A1 inh: -0.7; RanGTP-Imp inh: 2.2; B2AR ag: 3; T cruzi repl: -14; Beta apoptosis: 5; LANA-H2B inh: 7.0; UCH37 inh: 4.5; Calb FLC: 80*

What do the screens show for `O=C(OCc1cccc([N+](=O)[O-])c1)c1cccnc1Cl`?
A1 inh: -3.5; RanGTP-Imp inh: 2.6; B2AR ag: -1; T cruzi repl: -18; LANA-H2B inh: 3.2; UCH37 inh: 5.5; Calb FLC: 0

How did COc1cccc(CNC(=O)CCNS(=O)(=O)c2cccc3nsnc23)c1 do in these assays?
A1 inh: 0.4; RanGTP-Imp inh: inconclusive; B2AR ag: 1; T cruzi repl: -1; LANA-H2B inh: 2.4; UCH37 inh: -1.3; Calb FLC: 24

What do the screens show for `CCOC(=O)C1(CCc2ccccc2)CCN(C(=O)C(C)n2cncn2)CC1` (stereo not given)?
A1 inh: 0.1; RanGTP-Imp inh: 4.3; B2AR ag: 11; T cruzi repl: -2; Beta apoptosis: -11; LANA-H2B inh: -0.5; UCH37 inh: 0.6; Calb FLC: -5

How did O=C(Cc1ccc([N+](=O)[O-])cc1)N/N=C/c1ccccc1F do in these assays?
A1 inh: -0.4; RanGTP-Imp inh: -0.5; B2AR ag: 3; T cruzi repl: -16; Beta apoptosis: 4; LANA-H2B inh: 6.4; Calb FLC: -16

What do the screens show for `O=S(=O)(Nc1ccccc1N1CCCCC1)c1ccc(F)cc1F`?
A1 inh: -0.8; RanGTP-Imp inh: 0.5; B2AR ag: 0; T cruzi repl: -4; Beta apoptosis: 3; LANA-H2B inh: 0.8; UCH37 inh: 3.5; Calb FLC: -19

How did COc1ccc(C)cc1NC(=O)C(Sc1nnnn1C)c1ccccc1 (stereo not given) do in these assays?
A1 inh: -0.3; RanGTP-Imp inh: 3.9; B2AR ag: 3; T cruzi repl: -8; Beta apoptosis: -1; LANA-H2B inh: -0.2; UCH37 inh: 1.5; Calb FLC: 95*

Results for COc1ccc(Cn2ccnc2SCC(=O)NC2CCCCC2)cc1 ?
A1 inh: -0.2; RanGTP-Imp inh: 3.4; B2AR ag: 4; T cruzi repl: 5; Beta apoptosis: -7; LANA-H2B inh: 3.4; UCH37 inh: -0.2; Calb FLC: -4

What do the screens show for `CCCc1c(C)nc(N2CCN(c3ccccc3OC)CC2)[nH]c1=O`?
A1 inh: -0.3; RanGTP-Imp inh: 2.2; B2AR ag: 3; T cruzi repl: 10; Beta apoptosis: -3; LANA-H2B inh: -0.7; UCH37 inh: 4.5; Calb FLC: -4

Results for CC1CN(C(=O)c2c([N+](=O)[O-])cnn2C)CC(C)O1 (stereo not given) ?
A1 inh: 0.7; RanGTP-Imp inh: inconclusive; B2AR ag: 2; T cruzi repl: -15; Beta apoptosis: -4; LANA-H2B inh: 1.1; UCH37 inh: -2.7; Calb FLC: -6

Results for CCC(C)[C@H](NC(=O)Nc1ccccc1F)C(=O)OC (stereo not given in full) ?
A1 inh: 0.5; RanGTP-Imp inh: -4.0; B2AR ag: 2; T cruzi repl: -16; Beta apoptosis: 7; LANA-H2B inh: 3.0; UCH37 inh: 0.0; Calb FLC: -10
